GIRK2 activ – GIRK2 channel activation | HEK293-GIRK2 thallium flux, Thallos fluorescence | calls only for hits at 25 µM | 63,000 tested, 0.05% active | AID 1259325;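 active = among the strongest 0.2% of first-round signals and kept after retests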;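 note: first round at about 10 µM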
Target sequence (P48051 whole entry, looked up): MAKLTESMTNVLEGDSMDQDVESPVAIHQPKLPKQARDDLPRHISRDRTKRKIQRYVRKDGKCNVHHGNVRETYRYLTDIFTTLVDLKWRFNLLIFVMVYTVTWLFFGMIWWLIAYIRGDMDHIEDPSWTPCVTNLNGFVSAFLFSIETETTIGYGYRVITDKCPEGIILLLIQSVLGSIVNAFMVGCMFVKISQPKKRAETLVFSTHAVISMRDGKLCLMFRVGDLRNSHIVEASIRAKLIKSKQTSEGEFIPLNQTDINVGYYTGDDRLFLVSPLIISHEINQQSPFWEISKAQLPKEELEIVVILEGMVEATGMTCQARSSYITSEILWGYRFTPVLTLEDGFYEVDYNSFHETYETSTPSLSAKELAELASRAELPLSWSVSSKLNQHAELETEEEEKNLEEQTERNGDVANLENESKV
Calls only; i = inactive.

SMILES	GIRK2 activ
O=C(CSc1nnc(N2CCN(C(=O)c3ccc(F)c(F)c3)CC2)s1)Nc1ccccc1	i
CCOc1cccc2c1OCC(=O)N(c1ccc(Br)cc1F)C2	i
CC(C(=O)N1CCCC1)n1nc(-c2ccccc2)ccc1=O (centres undefined)	i
CC1Cc2ccccc2N1C(=O)c1cc2c(=O)n(C)c(=O)n(C)c2s1 (centres undefined)	i
O=C(CCCCn1c(=O)[nH]c2ccccc2c1=O)N1CCN(c2ccc(F)cc2)CC1	i
COc1ccc(NS(=O)(=O)c2cccc([N+](=O)[O-])c2)cc1	i
COc1ccccc1OCC(=O)NC1CCCC(OC(=O)Nc2ccc(F)cc2)C1 (centres undefined)	i
O=C(NCCc1ccccc1)Nc1ccc2c(c1)CCCN2C(=O)c1ccccc1	i
O=C(Cn1nc(C(=O)N2CCOCC2)cc1-c1cccs1)NCc1ccco1	i
O=C(NCc1ccsc1)Nc1ccc2c(c1)OCO2	i
O=C(NCC1(O)CCc2ccccc2C1)c1cc(-c2ccccc2)on1 (centres undefined)	i
COc1cccc(CNC(=O)C2CCCN(c3cnc4ccccc4n3)C2)c1 (centres undefined)	i
O=C(CCCCCn1nnc2ccccc2c1=O)Nc1cccc(Br)c1	i
Cn1c(=O)c2[nH]c(SCc3cccc(Cl)c3)nc2n(C)c1=O	i
CCCCCCCCCCCCCCCCCCCCCC(=O)NCCO	i
COc1ccc(OC)c(-c2cc(C(=O)NCC(O)c3ccc(C(F)(F)F)cc3)n(C)n2)c1 (centres undefined)	i
Cc1cc(OCC(=O)Nc2ccc(F)cc2Cl)nc(N2CCCC2)n1	i
O=C(Nc1cc(F)ccc1F)N1CCN(c2cc(N3CCCC3)ncn2)CC1	i
Nc1c(-c2ccccc2)c[nH]c1C(=O)NCc1ccccc1Cl	i
Cc1noc(-c2cccnc2N2CCC(NC(=O)c3cnccn3)CC2)n1	i
COc1cccc(Oc2c(C(F)(F)F)oc3c4c(ccc3c2=O)OCN(CC2CCCO2)C4)c1 (centres undefined)	i
COc1ccc(S(=O)(=O)N2CCCOC2CNC(=O)C(=O)NCc2ccncc2)cc1 (centres undefined)	i
CCOc1ccc(-n2nnc3c(=O)n(Cc4nc(-c5ccc(SC)cc5)no4)cnc32)cc1	i
Cc1cc(C)cc(S(=O)(=O)NCCNC(=O)c2ccc(NC(=O)C3CCCC3)cc2)c1	i
CCOc1ccc(-c2[nH]ncc2-c2ccc(OC)c(OC)c2)c(O)c1	i
COCCNC(=O)NCCn1ccc(C(F)(F)F)n1	i
O=C(Cn1cccc1)NC1CCN(c2nccs2)CC1	i
O=C(CSc1nc2ccccc2[nH]1)N1CCN(c2ccccn2)CC1	i
Cc1noc(C2(NC(=O)Nc3ccc4c(c3)OCO4)CCCCC2)n1	i
CS(=O)(=O)c1ccc2nc(N3CCN(C(=O)NC4CCCC4)CC3)sc2c1	i
CSc1cccc(NC(=O)Cn2nc3c(Oc4ccccc4C)nccn3c2=O)c1	i
COc1ccc(CN2COc3ccc4c(=O)c(-c5ccccc5)coc4c3C2)cc1	i
O=C(Nc1nccs1)C1CCN(C(=O)/C=C/c2cccs2)CC1	i
COc1ccc(CC(=O)Nc2cc(C)nn2-c2nc3ccc(OC)cc3s2)cc1	i
C=CCOC(=O)COc1ccc2c(=O)c(-c3ccccc3OC)coc2c1	i
CCOc1ccccc1CNc1ncc2c(=O)n(Cc3ccccc3F)c(=O)[nH]c2n1	i
O=c1c(-c2nc(-c3cnccn3)no2)cccn1CCOc1ccc(F)cc1	i
CCOCC(=O)NCCc1nc(C)cc(C(F)(F)F)n1	i
CCCCOc1ccc(C(=O)NCCOc2ccc3c(c2)OCO3)cc1	i
CCCCSc1nnc(C)c2cnn(-c3ccccc3OC)c12	i
Cc1nc2cc(NC(=O)C(C)n3nc(-c4ccccc4)ccc3=O)ccc2s1 (centres undefined)	i
COc1cc(OC)c(OC)cc1/C=C1\Oc2cc(OCC(=O)OC(C)(C)C)ccc2C1=O	i
COc1ccc(CC(=O)NCC2(c3ccc(F)cc3)CCOCC2)cc1OC	i
O=C(CCCSc1ccc(NC(=O)c2ccco2)nn1)Nc1nccs1	i
COc1cccc(OCCn2c(C3CC(=O)N(c4ccccc4OC)C3)nc3ccccc32)c1 (centres undefined)	i
Cc1cc(F)ccc1NC(=O)Cn1cnc2c(-c3ccc(F)cc3)cn(C)c2c1=O	i
CCN(CC)CCN1C(=O)C(O)=C(C(=O)c2sc(C)nc2C)C1c1ccccc1OC (centres undefined)	i
O=S(=O)(Nc1cc(OCc2ccccc2)ncn1)c1ccc(OC(F)(F)F)cc1	i
COc1ccc(-c2c(C)oc3cc(OCCN4CCN(C)CC4)ccc3c2=O)cc1	i
CC(=O)Nc1ccc(NC(=O)c2c3c(nn2C2CCS(=O)(=O)C2)CCC3)cc1 (centres undefined)	i

A stretch from the list above, as a working copy:
SMILES	GIRK2 activ
Cc1nc2cc(NC(=O)C(C)n3nc(-c4ccccc4)ccc3=O)ccc2s1 (centres undefined)	i
COc1cc(OC)c(OC)cc1/C=C1\Oc2cc(OCC(=O)OC(C)(C)C)ccc2C1=O	i

(list continues)
SMILES	GIRK2 activ
C=CCn1c(SCC(=O)NCCc2ccccc2)nc2scc(-c3ccco3)c2c1=O	i
O=C(CCCS(=O)(=O)c1ccccc1)Nc1nc2c(F)cc(F)cc2s1	i
COc1cccc(C(=O)CC2(O)C(=O)Nc3c(C)cccc32)c1 (centres undefined)	i
CCOC(=O)Cn1c(-c2ccccc2)cn2c3c(=O)n(C)c(=O)n(C)c3nc12	i
COc1cccc(C(=O)N(CCn2cccn2)c2nc3c(Cl)cccc3s2)c1OC	i
COCCn1c(-n2nc(C)cc2C)nc2c1c(=O)n(CCN1CCOCC1)c(=O)n2C	i
O=C(Cn1nc(-c2ccc3c(c2)OCO3)ccc1=O)NC1CCCC1	i
CN(C)CCNC(=O)c1ccc(=O)n(C)n1	i
Cc1cc(C)c(S(=O)(=O)N(C)c2ccsc2C(=O)NCc2ccccc2F)c(C)c1	i
O=C(CN1CCN(Cc2nc(-c3ccco3)cs2)CC1)N1CCCC1	i
COc1ccc(OC)c(S(=O)(=O)NCCc2ccc3c(c2)CCCN3C)c1	i
O=C(Nn1cnc2c(cnn2-c2ccccc2)c1=O)c1c(F)cccc1F	i
O=C(Nc1ccc2ncsc2c1)c1cc2cc([N+](=O)[O-])ccc2s1	i
O=C1C2CNC3(C(=O)Nc4ccccc43)C2C(=O)N1Cc1ccccc1 (centres undefined)	i
C#CCCNC(=O)CN(C)C(=O)OC(C)(C)C	i
Cc1cc(=O)[nH]c(-n2ncc(C(=O)N3CCc4ccccc43)c2C)n1	i
COc1ccc(CNC(=O)N2CC(c3nc(Cc4ccccc4)no3)C2)cc1	i
COc1cc(CNC(=O)CCCC/C=C\C(C)C)ccc1O	i
Nc1c(-c2nc(-c3ccc4c(c3)OCO4)cs2)nnn1-c1cc(F)ccc1F	i
COc1ccc2nc(-n3nc(C)cc3NC(=O)c3cc(C)nn3C)sc2c1	i
CCOCCn1c(=O)c2c(nc(-n3nc(C)cc3C)n2CC)n(C)c1=O	i
COc1ccccc1-c1cc2c(=O)n(CC#N)ccn2n1	i
COC1CC(OC(O)C(O)C(O)C(O)C(O)CO)c2c(cc3cc(C)oc(=O)c3c2O)OC1=O (centres undefined)	i
COc1cc(Nc2cc(C(=O)N3CCCCC3)nc3c(OC)cccc23)cc(OC)c1	i
O=C(/C=C/c1ccc2c(c1)OCO2)Nc1ccc(-c2ccn[nH]2)cc1	i
O=c1c2scc(-c3cccc(F)c3)c2ncn1Cc1cccc(Cl)c1	i
COc1ccc(-c2nn(-c3ccccc3)cc2C2CC(c3ccco3)=NN2C(=O)C(C)C)cc1 (centres undefined)	i
COc1nn(C)cc1C(=O)N1CCCC(c2nnc(-c3ccc4c(c3)OCO4)o2)C1 (centres undefined)	i
Cc1cc(C)n(C(C)CC(=O)OCC(=O)c2ccc(Cl)cc2)n1 (centres undefined)	i
COc1ccc(-c2noc(CS(=O)(=O)c3cc(C)c(C)cc3C)n2)cc1OC	i
CC(=O)c1ccc(S(=O)(=O)NCCNC(=O)c2ccc(NC(=O)C3CC3)cc2)cc1	i
O=C(Cn1nc2c(Sc3ccccc3)nccn2c1=O)Nc1ccc(Br)cc1F	i
COc1ccc(CNC(=O)Nc2ccc3c(c2)CCCN3C(=O)c2cccs2)cc1OC	i
CCc1ccc2ncc(C#N)c(N3CCC(C(=O)NCc4cccc(OC)c4)CC3)c2c1	i
COc1cccc(COc2cn(C)c(C(=O)NCCc3ccc(F)cc3)cc2=O)c1	i
O=C(Cc1ccccc1Cl)NCC(O)c1ccc2c(c1)CCO2 (centres undefined)	i
COc1ccc(NC(=O)CSc2nccc(N3CCCC3)n2)cc1OC	i
CC(=O)c1cccc(NC(=O)CCc2csc(NC(=O)c3ccc[nH]c3=O)n2)c1	i
Cc1occc1-c1nnc2sc(-c3ccc(-c4cccc(Cl)c4)o3)nn12	i
NS(=O)(=O)c1ccc(NC(=O)c2cc3n(n2)CCCO3)cc1	i

An excerpt from above in order of SMILES length, low to high.
SMILES	GIRK2 activ
COc1ccc(NC(=O)CSc2nccc(N3CCCC3)n2)cc1OC	i
O=C(Cn1nc2c(Sc3ccccc3)nccn2c1=O)Nc1ccc(Br)cc1F	i
CCc1ccc2ncc(C#N)c(N3CCC(C(=O)NCc4cccc(OC)c4)CC3)c2c1	i

Additional entries follow.
SMILES	GIRK2 activ
Cc1ccc(-c2nc(CSc3n[nH]c(=O)c4cc(-c5ccc(F)cc5)nn34)c(C)o2)cc1	i
CN1CCc2c(sc(NC(=O)c3ccccc3)c2-c2nc3ccccc3s2)C1	i
COc1ccccc1NCCN1N=C(C)C(C)n2c1nc1c2c(=O)n(C)c(=O)n1C (centres undefined)	i
COc1ccc(-c2ccc(=O)n(C(C)C(=O)Nc3ccccc3SC)n2)cc1 (centres undefined)	i
CCOc1ccc(-c2csc(NC(=O)CCS(=O)(=O)Cc3ccccc3)n2)cc1	i
COc1cccc(NC(=O)NCC#CCOc2ccc3c(c2)OCO3)c1OC	i
O=C(C1COc2ccccc2O1)N1CCN(CCn2cccn2)CC1 (centres undefined)	i
COC(=O)c1c(S(=O)(=O)Nc2ccc(OC)cc2)cnn1C	i
CC(C)(C#N)c1cc(Cn2cncn2)cc(C(C)(C)C#N)c1	i
C=CCOC(=O)COc1ccc2c(=O)c(Oc3ccccc3Br)coc2c1	i
Cc1nc(C)c(C(=O)NCC#CCOc2cccc(C(F)(F)F)c2)s1	i
O=C(Cn1nc2c(SCc3ccccc3)nccn2c1=O)NC1CCCCC1	i
CCc1ccccc1NC(=O)Cn1nc2c(Oc3ccccc3C)nccn2c1=O	i
O=C(Cc1ccccc1)Nc1ccccc1-c1nc2ccccc2[nH]c1=O	i
Cc1nnsc1C(=O)NCC(F)(F)F	i
COc1cc([C@H]2OC[C@H]3[C@@H]2CO[C@@H]3c2ccc(OC3OC(CO)C(O)C(O)C3O)c(OC)c2)ccc1OC1OC(CO)C(O)C(O)C1O (some centres undefined)	i
CC(C)(C)C(O)CCNC(=O)C1CCC1 (centres undefined)	i
CC(C)Oc1ccc(-c2noc(Cn3ncn4nc(-c5cccs5)cc4c3=O)n2)cc1	i
O=C(CN1C(=O)CCC1=O)NCC1CCN(C(=O)Oc2ccccc2)CC1	i
COCCNC(=O)N1CCN(CC(O)c2ccco2)CC1 (centres undefined)	i
Cc1cccc(-n2nnnc2-c2nc3ccccc3[nH]2)c1	i
C[C@@H]1O[C@@H](O[C@H]2[C@@H]3C=CO[C@@H](O[C@@H]4O[C@H](CO)[C@@H](O)[C@H](O)[C@H]4O)[C@@H]3[C@@]3(CO)O[C@@H]23)[C@H](OC(=O)/C=C/c2ccc(O)cc2)[C@H](O)[C@H]1O	i
Nc1nnc(C(F)(F)F)s1	i
CCCS(=O)(=O)N1CCCc2cc(NS(=O)(=O)c3ccc(OC)cc3OC)ccc21	i
O=C(NCC1(O)CCOc2ccccc21)c1ccccc1C(F)(F)F (centres undefined)	i
COc1ccc(C(=O)N2CCN(c3ncnc4c3nnn4-c3ccc(Cl)cc3)CC2)c(OC)c1	i
COc1ccc(-c2oc3ncnc(N)c3c2-c2ccc(NC(=O)Nc3cc(C(F)(F)F)ccc3F)cc2)cc1	i
C/C(=C\COc1ccc2ccc(=O)oc2c1)C/C=C/C(C)(C)O	i
c1ccc(-c2noc(-c3cc(-c4ccc5ccccc5c4)n[nH]3)n2)nc1	i
CCOC(=O)N1CCC(NC(=O)Cn2ccc3ccccc32)CC1	i

Shown as a markdown table: entries from further up.
| Structure | GIRK2 activ |
| --- | --- |
| O=C(NCC1(O)CCOc2ccccc21)c1ccccc1C(F)(F)F (centres undefined) | i |
| COc1ccc(C(=O)N2CCN(c3ncnc4c3nnn4-c3ccc(Cl)cc3)CC2)c(OC)c1 | i |
| Cc1cccc(-n2nnnc2-c2nc3ccccc3[nH]2)c1 | i |
| CCOC(=O)N1CCC(NC(=O)Cn2ccc3ccccc32)CC1 | i |

(listing goes on)
SMILES	GIRK2 activ
CSc1cccc(NC(=O)C2CCN(c3c(C#N)cnc4ccccc34)CC2)c1	i
COc1ccc(S(=O)(=O)N(C)CCO)cc1N(C)S(=O)(=O)c1ccc(C)cc1	i
O=C(Nc1ccc2c(c1)CN(C(=O)C1CC1)CC2)c1ccc(OC(F)(F)F)cc1	i
O=C1COc2ccc(C(=O)CSc3nnc(Cn4ccc(=O)[nH]c4=O)o3)cc2N1	i
Cc1ccccc1NC(=O)N1CCOC(c2cc(Cl)cc(Cl)c2)C1 (centres undefined)	i
O=C(CCS(=O)(=O)c1ccccc1)Nc1nc2c(s1)COCC2	i

Compound activity (PubChem)

A portion of the library; the hit share may differ from the screen's.
